# Arbovirus anti: antivirals against arbovirus infection, primary screen, cell-based, full library, 10K replicate subset; 0.37% of 200,000 active; AID 1251, 2008; inhibition, % at 10 µM; arbovirus infection cell-based antiviral screen;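 active = inhibition from about 30%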;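 also: bluetongue infection of BSR cells; cell survival read as ATP light after 72 h; 0% = infected wells without compound and 100% = uninfected wells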
# Mtb growth: M. tuberculosis H37Rv growth inhibitors, H37Rv strain (AID 1626). M. tuberculosis H37Rv growth inhibition; higher % means a stronger effect. inhibition, % at 10 µM; hits with a dose series show IC50 in µM. 0.95% of 220,000 active;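 active = confirmed in a dose series; inconclusive = inhibition above 80% but not taken into the dose series; inactive = below 80% or under 30% at every dose of the series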;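 also: bacteria incubated seven days before Alamar blue readout; 0% = bacteria only wells and 100% = bacteria with antibiotic wells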
# YopH inh: YopH tyrosine phosphatase inhibitors, primary screen, biochemical, fluorescence Ex485/Em525 | inhibition, %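 (about 10 µM by stock and volumes)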 | 0.16% of 140,000 active | AID 898, 2007;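 active = inhibition of 50% or more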;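 also: controls were vehicle for no effect and minimum signal wells for full effect; inactives centre near -20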
# Mtb betalactam: beta-lactam sensitization of Mtb H37Rv, H37Rv; M. tuberculosis H37Rv growth with meropenem, percent inhibition; hits of this screen are not shown here; inhibition, % at 25 µM; 0.27% of 330,000 active; AID 434955, 2010;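 active = about 74% or more and at least 40 points above the plate without the antibiotic, then above 30% in a dose series; inconclusive = first-round hits that could not be retested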;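 also: growth measured after seven days incubation then overnight dye step; 0% = bacteria only wells and 100% = bacteria with antibiotic; twin plates without the antibiotic show which effects depend on it; some results filed as inactive read as strong as hits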
# RecA intein inh: Mtb RecA intein splicing inhibitors, primary screen, biochemical, fluorescence, HTS; inhibition, %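 (about 9 µM by stock and volumes)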; 0.75% of 290,000 active; Protein RecA (Mycobacterium tuberculosis (strain ATCC 25618 / H37Rv)), P9WHJ3; cell-free RecA intein splicing; AID 2221, 2009; in the data active = inhibition above about 30%; inconclusive = no clear call, values can overlap the other calls;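 also: 0% = vehicle wells and 100% = reference inhibitor control wells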
# Target sequence (P9WHJ3 whole entry, looked up): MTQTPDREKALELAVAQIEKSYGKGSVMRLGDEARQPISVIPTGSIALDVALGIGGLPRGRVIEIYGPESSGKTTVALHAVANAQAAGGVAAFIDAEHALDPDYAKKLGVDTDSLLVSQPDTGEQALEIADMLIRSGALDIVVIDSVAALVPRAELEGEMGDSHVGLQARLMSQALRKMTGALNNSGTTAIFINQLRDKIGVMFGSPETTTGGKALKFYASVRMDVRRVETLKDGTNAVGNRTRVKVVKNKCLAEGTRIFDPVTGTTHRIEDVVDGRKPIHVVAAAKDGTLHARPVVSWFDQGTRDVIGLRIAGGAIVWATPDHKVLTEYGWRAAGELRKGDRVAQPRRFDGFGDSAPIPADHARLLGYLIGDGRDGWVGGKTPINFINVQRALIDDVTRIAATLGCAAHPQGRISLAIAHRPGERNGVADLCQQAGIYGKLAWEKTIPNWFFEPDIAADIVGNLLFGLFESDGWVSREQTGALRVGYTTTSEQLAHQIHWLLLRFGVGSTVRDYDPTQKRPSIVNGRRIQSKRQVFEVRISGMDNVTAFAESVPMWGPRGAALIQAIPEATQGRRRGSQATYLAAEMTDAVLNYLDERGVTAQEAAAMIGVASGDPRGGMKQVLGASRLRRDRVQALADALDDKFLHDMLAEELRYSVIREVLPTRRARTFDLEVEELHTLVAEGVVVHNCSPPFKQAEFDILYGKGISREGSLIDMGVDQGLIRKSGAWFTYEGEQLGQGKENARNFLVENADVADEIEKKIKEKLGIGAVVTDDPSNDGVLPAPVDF
# Arbovirus anti repeat: further read-out of Arbovirus anti, marked with its call; inhibition, %; measured here: 10K subset replicate screen; many hits read low in the repeat;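 first of two repeat runs on a subset; 0% = infected and 100% = uninfected wells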
# Numbers without * were called inactive; ? = inconclusive; . = no result given; & = joins results of further samples. Some of the compounds tested; count on the stated rates, not on these rows.
SMILES,Arbovirus anti,Mtb growth,YopH inh,Mtb betalactam,RecA intein inh,others
CCOP(=O)(OCC)/C(=N/OC(=O)c1ccc(OC)cc1)C(N)=O,.,-3%,.,-3,-0.7,
Cc1ccc(C(=O)NC2CCCC2)cc1S(=O)(=O)N1CCCCC1,.,.,.,0,1.0,
CCOC1C(=O)NC(=O)N1Cc1ccccc1 (centres undefined),.,.,.,1,0.7,
COc1ccc2c(CC(=O)Nc3nc(C)cs3)coc2c1,-1,3%,.,1,-0.4,
Cc1ccc(C(=O)N2CCN(c3ccccc3)CC2)cc1NC(=O)c1ccco1,.,.,.,3,-0.3,
CCc1ccccc1NS(=O)(=O)c1cccc2nsnc12,.,.,.,-8,1.1,
Cc1ccc(S(=O)(=O)N(C)CC(=O)N2CCCCCC2)cc1,.,.,.,-6,1.8,
CC(C)c1c(O)nc(SCc2ccccc2)[nH]c1=O,0,3%,-37,3,2.1,
CCOC(=O)c1ccccc1NC(=O)C(C)Oc1ccccc1 (centres undefined),1,-8%,-34,33,1.8,
COc1ccc(-c2cc(C(F)(F)F)nc(-n3cc(Cl)cn3)n2)cc1,-7,0%,-23,6,13,
O=C(O)C1Nc2c(Cl)cc(Cl)c(Cl)c2C2C=CCC12 (centres undefined),.,.,.,-1,7.4,
O=C(O)c1ccc2c(c1)C(=O)N(c1ccc(C(=O)OCC(=O)c3ccccc3)cc1)C2=O,.,.,.,-11,5.8,
COc1ccc(S(=O)(=O)Nc2c(O)c3ccccc3oc2=O)cc1,.,.,.,-11,-3.7,
COc1ccccc1N1CCN(CC(=O)Nc2nccs2)CC1,.,.,.,5,-0.7,
O=C(c1cccc([N+](=O)[O-])c1)N1CCCN(C(=O)c2cccc([N+](=O)[O-])c2)CC1,-3,3%,-30,5,-0.1,
COc1ccccc1-n1c(/C=C/c2ccccn2)nc2ccccc2c1=O,.,.,.,?,1.9,
NC(=O)C1CCN(CC(=O)N2N=CCC2c2ccccc2)CC1 (centres undefined),2,-5%,.,-3,.,
CC(CN1C(C)CCCC1C)OC(=O)c1ccc(Cl)cc1 (centres undefined),-7,0%,.,0,2.6,
Cc1ccc(S(=O)(=O)NN2C(=O)/C(=C/c3ccc(F)cc3)SC2=S)cc1,.,.,.,-2,3.8,
CNC(=O)c1[nH]cnc1C(=O)N[C@@H](CCCCNC(=O)OC(C)(C)C)C(=O)OC(C)(C)C,-1,-5%,.,-1,0.7,
COc1ccccc1Cn1c(SCC(=O)C(C)(C)C)nc2cc(C(=O)N3CCC4(CC3)OCCO4)ccc2c1=O,-3,4%,.,-7,0.5,
COc1ccc(-n2nc(C(=O)N3CCC(N4CCCCC4)CC3)c3c4ccccc4n(C)c3c2=O)cc1,.,.,.,-2,-1.4,
O=C(COc1ccc2ccc(=O)oc2c1)Nc1nccs1,.,.,.,-6,-2.5,
COc1ccc(/C=N/NC(=O)CN2CCCC2)cc1,.,.,.,-4,-1.7,

# Brought forward from above: 7 compounds, followed by the next part.
SMILES,Arbovirus anti,Mtb growth,YopH inh,Mtb betalactam,RecA intein inh,others
CC(CN1C(C)CCCC1C)OC(=O)c1ccc(Cl)cc1 (centres undefined),-7,0%,.,0,2.6,
Cc1ccc(S(=O)(=O)NN2C(=O)/C(=C/c3ccc(F)cc3)SC2=S)cc1,.,.,.,-2,3.8,
CNC(=O)c1[nH]cnc1C(=O)N[C@@H](CCCCNC(=O)OC(C)(C)C)C(=O)OC(C)(C)C,-1,-5%,.,-1,0.7,
COc1ccccc1Cn1c(SCC(=O)C(C)(C)C)nc2cc(C(=O)N3CCC4(CC3)OCCO4)ccc2c1=O,-3,4%,.,-7,0.5,
COc1ccc(-n2nc(C(=O)N3CCC(N4CCCCC4)CC3)c3c4ccccc4n(C)c3c2=O)cc1,.,.,.,-2,-1.4,
O=C(COc1ccc2ccc(=O)oc2c1)Nc1nccs1,.,.,.,-6,-2.5,
COc1ccc(/C=N/NC(=O)CN2CCCC2)cc1,.,.,.,-4,-1.7,
CCCCC(=O)N/N=C/c1sccc1C,0,14%,-9,5,-0.3,
CCOC(=O)c1ccc(N/C=C/C(=O)c2ccc(OC)cc2)cc1,-33,77%,-58,98,-1.4,
CCC(C)(C)NC(=O)c1ccc2c(c1)S(=O)(=O)c1ccccc1C2=O,3,2%,2,31,-15,
Cc1ccc(C)c(NC(=O)CCNS(=O)(=O)c2ccc3[nH]c(=O)oc3c2)c1,.,.,.,-3,-0.4,
O=C(NOC(=O)c1c(F)cccc1Cl)c1ccc(Cl)c(Cl)c1,.,.,.,-1,4.6,
CC(C)Cn1c(=O)c(-[n+]2ccccc2)c([O-])c2ccccc21,1,-9%,.,2,-0.6,
CCCCCn1c(CNC(=O)c2cccs2)nc2ccccc21,-3,0%,0,6,0.5,Arbovirus anti repeat=-5
NC(=O)c1cc(-c2cccnc2)nc2ccc(Br)cc12,.,.,.,5,-3.8,
CC(C)OCCCNC(=O)c1c(N)n(/N=C/c2ccccn2)c2nc3ccccc3nc12,-3,0%,-43,3,2.1,
CCC(C)(NC(=O)CNC(C)=O)C(=O)NC1CCCCC1 (centres undefined),5,-5%,16,0,0.2,Arbovirus anti repeat=2
Cc1cccc(OCC(=O)O/N=C(\N)Cc2ccc([N+](=O)[O-])cc2)c1,6,6%,.,-2,4.2,
COc1ccc2c(c1)SCCC2=O,4,-12%,1,-4,-1.4,
Cc1ccc(C(C)NC(=O)C2CCCO2)cc1C (centres undefined),6,-8%,19,-12,-1.3,
COc1cccc(/C=C2\SC(=S)N(CCCC(=O)N(CCO)c3ccccc3)C2=O)c1,.,.,.,2,37*,
CCCOc1ccc(/C=N/NC(=O)C(=O)Nc2ccccn2)cc1,4,?,-22,92,-1.5,
Cc1ccc(CCNC(=O)CN2C(=O)COc3ccc(S(=O)(=O)N4CCOCC4)cc32)cc1,.,.,.,10,7.2,
Clc1ccccc1OCCCCN1CCCCC1,.,.,.,-1,0.0,
CCOC(=O)/C(=N\Nc1ccc(Cl)cc1)Sc1nnc(-c2ccc(OC)cc2)n1C,0,65%,-7,3,1.3,
Cc1nc(NNC(=O)c2ccc(Cl)cc2Cl)cc(-c2ccccc2)n1,1,7%,-16,6,0.2,
COc1ccc(N2CCN(C(=O)C3CCN(C(=O)c4cccc(Cl)c4)CC3)CC2)cc1,.,.,.,6,-3.2,
O=C(N/N=C/C=C/c1ccccc1[N+](=O)[O-])c1cccnc1,1,-3%,.,-2,-3.9,
CC(=C1C(=O)c2ccccc2C1=O)N1CCN(Cc2ccccc2)CC1,-3,-12%,-8,-5,-0.7,
O=C(O)c1cccc(NS(=O)(=O)c2ccc(Cl)c(C(=O)Nc3cccc([N+](=O)[O-])c3)c2)c1,.,.,.,-3,-0.9,
Cc1ccc(CN2CCSc3ccc(C(=O)N4CCC5(CC4)OCCO5)cc32)cc1,.,.,.,2,9.5,
CCSC1=N/C(=C\C=C2/Oc3ccccc3N2CC)C(=O)S1,.,0%,.,4,-8.7,
CCN(CC)c1cc2nonc2c2nonc12,12,8%,-46,3,0.8,
CC(OC(=O)Cc1ccccc1[N+](=O)[O-])C(=O)Nc1ccc(Cl)cn1 (centres undefined),.,.,.,-15,-1.0,
O=C(CCC(=O)c1ccc(F)cc1)NCc1ccccc1C(F)(F)F,.,.,.,3,1.5,
CCn1c(CNC(=O)C2CCCCC2)cc2cc(C)ccc21,.,.,.,2,-2.5,
CC(C)Oc1ccc(NC(=O)CCC(=O)O)cc1,11,-9%,9,-10,0.9,
COc1cccc(C(c2nnnn2Cc2ccco2)N2CCN(Cc3ccccc3)CC2)c1OC (centres undefined),9,10%,.,-4,-0.1,
NC(=O)NC(=O)COC(=O)c1ccccc1Oc1ccccc1,4,-1%,-48,12,0.0,
CCCN1CCN(C(=O)Cn2ncc3c([nH]c4ccc(C)cc43)c2=O)CC1,.,.,.,1,-1.4,
COC(=O)c1ccc(NC(=O)c2cn(-c3ccccc3)nc2-c2ccncc2)cc1,10,8%,-47,1,1.3,
COc1ccccc1OCCOCCOc1c(C)cc(C)cc1Br,4,12%,-15,1,3.2,
Cc1ccc(Cl)c(OCC(=O)NC2CCN(Cc3ccccc3)CC2)c1,.,.,.,-1,-1.1,
N#Cc1ccc(OCC(=O)OCC(=O)NCCC2=CCCCC2)cc1,1,4%,-24,-2,1.2,
CC1(c2ccc([N+](=O)[O-])cc2)NC(=O)NC1=O (centres undefined),.,.,.,-5,-3.5,
C=CCn1cc(C(=O)NCCCOC)c(=O)c2cc(S(=O)(=O)N(CC)CC)ccc21,2,9%,-31,.,-6.1,
Cc1cc(NS(=O)(=O)c2ccc(Nc3nc(-c4ccc(C)c(C)c4)cs3)cc2)no1,-32,0%,1,81,4.4,
CNC(=O)C(=O)NCCN1CCN(S(=O)(=O)c2ccc3ccccc3c2)CC1,.,.,.,4,-1.0,
COc1ccc(OCC#CCN2CCCCCC2)cc1,4,6%,.,-1,-1.3,
CCC1=NN2C(=N)/C(=C\c3cccn3-c3ccc(C)c(C)c3)C(=O)N=C2S1,11,6%,.,0,-0.2,
COc1ccc(Cl)cc1C(=O)NCC(c1ccco1)N1CCCC1 (centres undefined),3,-13%,-8,1,1.3,Arbovirus anti repeat=12
COc1cc(C(=O)N2CCN(C(=O)c3cccc4ccccc34)CC2)cc(OC)c1OC,.,.,.,-7,-1.0,
Cc1cccc(Nc2nc(-c3c(C)nc4ccccn34)cs2)c1,-16,3%,-17,3,2.8,
CCOc1ccc(NC(=O)NCCCN2CCCC2)cc1,-1,2%,-8,0,-0.3,
COc1ccccc1N1CCN(C(=O)c2cc3sccc3n2C)CC1,-5,2%,-12,0,.,
CCc1ccc(N(C(=O)CNC(=O)c2ccco2)C(C(=O)NC2CCCC2)c2cccnc2)cc1 (centres undefined),.,.,.,2,-1.2,
CC(=O)Nc1cccc(C(=O)Nc2ccc(S(=O)(=O)N3CCCCC3)cc2)c1,.,.,.,-12,0.6,
Cc1cccc(C)c1NC(=O)c1cccc(N2C(=O)C3CCC(C)CC3C2=O)c1 (centres undefined),.,.,.,-4,1.7,
Clc1cc(Br)ccc1OCCOCCN1CCOCC1,-1,13%,-40,-7,2.3,Arbovirus anti repeat=-6
NC1=NC(=O)/C(=C\c2cccs2)S1,5,4%,-42,-8,0.2,
CN1CCc2c(c3c(n2C)CCN(C)[C@@H]3c2cccnc2)[C@H]1c1cccnc1,13&0,0%,-8,4&0,-0.1,
COc1ccccc1N1CCN(CC(=O)c2ccc(F)cc2)CC1,.,.,.,-1,0.0,
O=c1cc(O)n(-c2ccc(Cl)cc2)c(=S)[nH]1,3,-2%,-47,-7,-5.3,
Cc1ccc(CC(=O)O/N=C(\N)Cc2ccc([N+](=O)[O-])cc2)cc1,-4,5%,-6,11,1.0,
CC(C)c1ccc(NC(=O)NCc2ccc3c(c2)OCO3)cc1,.,.,.,-15,-1.6,
CC(=O)Nc1c(C(=O)c2ccccc2)oc2ccccc12,0,-3%,-7,3,1.5,
CCOc1ccc(-c2nonc2NC(=O)c2ccco2)cc1OCC,.,.,.,5,2.2,

# An excerpt from the list above, for reference:
SMILES,Arbovirus anti,Mtb growth,YopH inh,Mtb betalactam,RecA intein inh,others
CCc1ccc(N(C(=O)CNC(=O)c2ccco2)C(C(=O)NC2CCCC2)c2cccnc2)cc1 (centres undefined),.,.,.,2,-1.2,
CC(=O)Nc1cccc(C(=O)Nc2ccc(S(=O)(=O)N3CCCCC3)cc2)c1,.,.,.,-12,0.6,

# (more compounds)
SMILES,Arbovirus anti,Mtb growth,YopH inh,Mtb betalactam,RecA intein inh,others
O=C(NCc1ccco1)c1cccc(NC(=O)c2ccccc2)c1,-38,0%,11,-16,4.4,
COc1cc(/C=C/C(=O)N2CCN(c3ccccn3)CC2)cc(OC)c1OC,.,.,.,4,-0.3,
O=C(NC1CC1)C1=C[C@@H](c2ccc(Br)cc2)C[C@@H](OCCCCO)O1,-1,-11%,.,-6,-0.1,
COc1ccc(-c2nnc(NC(=O)Cc3ccccc3)s2)c(OC)c1,.,-2%,.,6,-4.8,
COc1ccc(S(=O)(=O)N2CCN(C(=O)NC3CCCCC3)CC2)cc1,-6,-6%,.,7,0.4,
CC1(C)N=C(N)N=C(N)N1c1ccc(C(=O)O)cc1,4,.,-7,6,-0.5,

# From PubChem
